Screens from PubChem.
Marburg entry inh: qHTS for inhibitors of binding or entry into cells for Marburg Virus; Marburg virus pseudotyped entry inhibition, cell reporter; control for the full effect not named in the record; about a third of the inactives were read at about 46 µM; Potency, µM (titrated, usually from 37.8 µM), without a hit: at the top dose activity change, negative = inhibition, hits mostly inhibitors; 1.8% of 300,000 active; active = well fitted inhibition curve with a large enough effect; inconclusive = small, poorly fitted or top-dose-only effect, or effect the other way; inactive = flat fitted curve, though single readings scatter; tested in HEK293 cells; about a fifth of its hits are not listed in these tables; note: % is set by controls: 0 for no effect and ±100 for the full control effect; luciferase read-out
2A StopGo: High Throughput Screening for Foot and Mouth Disease Virus Antivirals. human cells with a luciferase reporter of 2A StopGo recoding; control for the full effect not named in the record. 1.2% of 410,000 active. Potency, µM (doses to about 57.9 µM), for inactives: top-dose signal change, negative = less light. AID 1159524, 2015; active = well fitted falling curve with a large enough effect; inconclusive = small, poorly fitted or top-dose-only effect; inactive = no such curve, though single readings can be large or run the other way; tested in HEK293T cells; note: % is set by controls: 0 for no effect and ±100 for the full control effect; nearly all actives have a fitted effect of over 45% in size; luciferase light after 4 h
NS1 function inh: qHTS Assay for Inhibitors of Influenza NS1 Protein Function. Potency, µM (series often up to 46.1 µM), inactives show at the highest dose activity, positive = more growth. 0.4% of 270,000 active. S. cerevisiae slowed by influenza A NS1, growth recovery by OD600; active means well fitted rising curve with a large enough effect; inconclusive means small, poorly fitted or top-dose-only effect; inactive means no such curve, though single readings can be large or run the other way; note: nearly all actives have a fitted effect of over 50% in size
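Growth recovery, yeast-based: influenza A NS1 expressed in S. cerevisiae causes slow growth, and suppressors are detected by OD600. The parent strain without NS1 is used as positive control.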
RE007 growth inh: qHTS Assay for Inhibitors of the HIV-1 protein Vpr; S. pombe RE007 Vpr strain, BacTiter-Glo ATP luminescence, 24 h; control for the full effect not named in the record; 0.21% of 360,000 active; AID 651644, 2012; Potency, µM (top dose mostly 92.2 µM), for inactives: top-dose activity change, negative = less growth; active = well fitted falling curve with a large enough effect; inconclusive = small, poorly fitted or top-dose-only effect; inactive = no such curve, though single readings can be large or run the other way;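 note: % is set by controls: 0 for no effect and ±100 for the full control effect; nearly all actives have a fitted effect of over 50% in size; the assay follows cell death caused by Vpr and the record does not say whether a fall means rescue or toxicity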
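Fission yeast strain RE007, carrying one chromosomally integrated HIV-1 vpr copy, was seeded at OD 0.01 in PMG+AL medium with 23 nL pinned compound. After 24 h at 30 °C and 99% humidity, viability was read by BacTiter-Glo luminescence.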
Cruzain noTriton: qHTS Assay for Promiscuous and Specific Inhibitors of Cruzain (without detergent) | Potency, µM, without a hit: max response, negative = inhibition, hits mostly inhibitors | AID 1476, 2009 | purified cruzain, Z-FR-AMC fluorescence, no detergent | 2.3% of 200,000 active | Cruzipain (Trypanosoma cruzi), P25779;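 note: plate controls were enzyme without inhibitor for no effect and buffer without enzyme for full effect; nearly all actives have a fitted effect of over 40% in size; top concentration of the series not given in the record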
Target sequence (P25779 123-467 limits assumed): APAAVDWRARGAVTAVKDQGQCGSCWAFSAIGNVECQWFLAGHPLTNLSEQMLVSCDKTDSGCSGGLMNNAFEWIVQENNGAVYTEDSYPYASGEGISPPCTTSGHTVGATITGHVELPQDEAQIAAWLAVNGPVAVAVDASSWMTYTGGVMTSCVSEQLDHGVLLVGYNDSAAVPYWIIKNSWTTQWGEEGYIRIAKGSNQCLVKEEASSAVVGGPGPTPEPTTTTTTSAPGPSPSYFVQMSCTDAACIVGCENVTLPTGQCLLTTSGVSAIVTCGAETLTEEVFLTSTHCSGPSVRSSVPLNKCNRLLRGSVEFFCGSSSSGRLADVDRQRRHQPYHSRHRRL
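Detergent-free condition (0.00005% Triton X-100) in acetate buffer pH 5.5 with DTT. 1.5 nM enzyme and compound were pre-mixed 15 min, then 2 uM Z-FR-AMC substrate added; reaction progress from fluorescence change between first and third reads (60 s).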
SARS PLpro yeast: qHTS of Yeast-based Assay for SARS-CoV PLP; S. cerevisiae expressing SARS-CoV PLpro, growth rescue; control for the full effect not named in the record; Potency, µM (series often up to 32.9 µM), for inactives: at the highest dose activity, positive = growth rescue; 0.19% of 330,000 active; AID 485353, 2010; active means well fitted rising curve with a large enough effect; inconclusive means small, poorly fitted or top-dose-only effect; inactive means no such curve, though single readings can be large or run the other way; note: 0% is about no effect; nearly all actives have a fitted effect of over 55% in size; growth read by luminescence after 48 h
Cruzain Triton: qHTS Assay for Promiscuous and Specific Inhibitors of Cruzain (with detergent). purified cruzain, Z-FR-AMC fluorescence, 0.01% Triton. 0.43% of 200,000 active. Cruzipain (Trypanosoma cruzi), P25779. Potency, µM, inactives show max response, negative = inhibition, hits mostly inhibitors;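 note: plate controls were neutral wells for no effect and buffer without enzyme for full effect; nearly all actives have a fitted effect of over 40% in size; top concentration of the series not given in the record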
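Read-out: AMC fluorescence (360 nm excitation, 450 nm emission), four reads over 2 min, first-to-third difference used. Conditions: cruzain 1.5 nM, Z-FR-AMC 2 uM, pH 5.5 acetate, 5 mM DTT, 0.01% Triton X-100.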
Lassa entry inh: qHTS for Inhibitors of binding or entry into cells for Lassa Virus; 1.2% of 300,000 active; Lassa virus pseudotype entry inhibition, cell reporter; control for the full effect not named in the record; AID 540256, 2011; Potency, µM (doses to about 37.9 µM), inactives show top-dose activity change, negative = inhibition, most hits filed as inhibitors; active means well fitted inhibition curve with a large enough effect; inconclusive means small, poorly fitted or top-dose-only effect, or effect the other way; inactive means flat fitted curve, though single readings scatter; tested in HEK293 cells; note: % is set by controls: 0 for no effect and ±100 for the full control effect; nearly all actives have a fitted effect of over 50% in size; luciferase read-out
Active calls of the source: *; u = inconclusive; x = no result given; [ ] = dose if it differs, or a comment. Unless noted, calls come from the whole dose curve; as a rule, active = well fitted curve in the direction sought with a large enough effect; inconclusive = small, poorly fitted or top-dose-only effect, or another doubt; inactive = no such curve, though single readings can be large; an effect the other way counts as inactive or inconclusive. Potency is the fitted concentration of half-maximal effect.

Below each compound – Marburg entry inh, 2A StopGo, NS1 function inh, RE007 growth inh, Cruzain noTriton, SARS PLpro yeast, Cruzain Triton, Lassa entry inh
- CCn1cc(C(=O)NCCc2ccc(OC)c(OC)c2)c(=O)c2cc(S(=O)(=O)N3CCc4ccccc4C3)ccc21
 : -3%[46.1 µM], -1%, x, x, u, x, -8.1%, -3%[46.1 µM]
- Cc1ccnc(NC2OC(=O)c3ccccc32)c1 (stereo not drawn)
 : 9%, -6%, 10%, -6%, 12%, 3%, 5.5%, 8%
- CCCCC12CN3CC(C)(CN(C1)C3c1c[nH]c3ccccc13)C2=O (stereo not drawn)
 : -22%[46.1 µM], -15%, x, x, 3%, x, -6.7%, u
- Cc1ccccc1CNC(=O)/C=C\C(=O)O
 : u, -14%, -7%, -15%, -8%, -33%, -4.1%, -3%
- Cn1ccnc1C1CCCCN1C(=O)c1cc(COc2ccc(F)cc2Cl)on1 (stereo not drawn)
 : u, -10%, -6%, 2%, x, 0%, x, -29%[46.1 µM]
- CCn1cc(/C=N\NC(=O)c2ccc(F)cc2)cn1
 : 2%, 16%, -4%, -25%, -15%, -3%, -4.7%, u
- CC(=O)c1c(C)nn(-c2ccccc2)c1C
 : 18%[46.1 µM], 3%, 3%, 1%, x, 0%, x, 9%
- Nc1nc(-c2cccnc2)nn1C(=O)c1ccc(F)cc1
 : -1%[46.1 µM], -11%, 1%, 15%, x, 1%, x, -14%[46.1 µM]
- O=C(CN1C(=O)C2CC=CCC2C1=O)NCC1COc2ccccc2O1 (stereo not drawn)
 : -3%, -14%, 17%, -6%, 2%, 1%, 0.4%, 2%
- COc1ccc(OC)c(CCNC(=O)c2ccc(CS(=O)Cc3ccc(Cl)cc3)o2)c1 (stereo not drawn)
 : x, -21%, -18%, 3%, x, u, x, x
- Cc1ccc(N2C(=O)NC(=O)/C(=C/c3ccoc3)C2=O)cc1
 : -21%[46.1 µM], -17%, 2%, 4%, x, -3%, x, 13%
- COc1cc(OC)c(OC)cc1/C=N/NC(=O)c1ccc(CSc2nc(C)cc(C)n2)cc1
 : 3%[46.1 µM], 26%, x, -5%, x, x, x, 6%
- COC(=O)CCCn1c(-c2ccc(C)cc2)c(C)n2c3c(=O)n(C)c(=O)n(C)c3nc12
 : 1%[46.1 µM], u, x, x, -4%, x, -0.2%, u
- Cc1cccc(C)c1NC(=O)Cn1c(=O)n(CC2CCC(C(=O)NCCc3ccccc3)CC2)c(=O)c2ccccc21 (stereo not drawn)
 : u, -13%, x, x, -3%, x, -1.2%, u
- CN=C1C([N+](=O)[O-])=CC=C2C1=NC1(CCCCC1)N2O
 : u, -20%, 11%, -21%, 2%, -6%, -4.1%, 5%
- Cc1ccc(CCNC(=O)C2CCCN(S(=O)(=O)c3c(C)nn(C)c3C)C2)cc1 (stereo not drawn)
 : 1%, -6%, -2%, -14%, 4%, -3%, 1.5%, x
- Cc1nn(C)c(Cl)c1CN1CCC(Oc2ccc(C(=O)N3CCCC3)cc2)CC1
 : -17%, -14%, 6%, 1%, x, 9%, x, -12%
- O=C(NCc1ccco1)/C(=C/c1ccco1)NC(=O)c1ccccc1
 : -16%[46.1 µM], 6%, 14%, 2%, x, -1%, x, 19%
- O=C(NC1CCC(O)CC1)c1ccc(S(=O)(=O)NCc2ccco2)cc1 (stereo not drawn)
 : 21%, -17%, 11%, 16%, -9%, 2%, 7.0%, 9%
- O=C1CSC(c2cccc([N+](=O)[O-])c2)N1c1ccc(O)cc1 (stereo not drawn)
 : 1%, -20%, x, 5%, x, 3%, x, -1%
- O=C(CCn1cnc(-c2ccccc2)c1-c1ccccc1)N/N=C/c1ccccc1O
 : u, -7%, -27%, 4%, 11%, 10µM*, -15%, 23µM*
- COc1ccc(CCC(=O)N2CCN(c3ccc([N+](=O)[O-])cc3)CC2)cc1OC
 : u, u, -4%, -7%, x, 0%, x, 2%[46.1 µM]
- Cc1cccc(C)c1OCc1nc2c3cnn(-c4ccccc4F)c3ncn2n1
 : u, 25%, x, x, 7%, x, 2.9%, 27%[46.1 µM]
- COc1ccc(NCc2nnc(SCC(=O)c3ccc(OC)cc3)n2C)cc1
 : 11%, 1%, -13%, -13%, -11%, -19%, -7.2%, -2%
- COc1cc(OC)c(C2Nc3ccccc3-c3nnc(SCc4ccccc4)nc3O2)cc1OC (stereo not drawn)
 : 8%[46.1 µM], -5%, x, x, 2%, x, -9.6%, 19%[46.1 µM]
- CN(C(=O)c1ccc(OC2CCN(S(=O)(=O)N(C)C)CC2)cc1)C1CCCCC1
 : u, 1%, 1%, 15%, x, -3%, x, 17%[46.1 µM]
- Cc1ccc(Nc2nc(N)nc(CC#N)n2)cc1
 : 19%, x, u, 6%, -5%, 4%, -6.3%, 27%
- O=C(CN1C(=O)C2(OCCCO2)c2ccccc21)NCc1ccccc1
 : -3%, -9%, -2%, -18%, 10%, 7%, 2.5%, -6%
- Cc1cc(F)c(F)c(C(=O)N2CCOCC2)c1
 : -12%[46.1 µM], 4%, 0%, 2%, -6%, 14%, 2.8%, 2%
- CC(C)c1ccc(NC(=O)CSc2nc3ccsc3c(=O)n2Cc2ccc(C(=O)O)cc2)cc1
 : x, -9%, -3%, 10%, x, 1%, x, x
- Cc1cc(C)cc(NC(=S)NC2CC3CCCC(C2)N3Cc2cccs2)c1 (stereo not drawn)
 : u, x, -1%, -10%, -4%, -3%, -0.3%, u
- CCN(C(=O)C1CCN(S(=O)(=O)c2ccc3c(c2)CCCN3C(=O)C2CCC2)CC1)c1cccc(C)c1
 : x, u, x, x, -1%, x, 0.9%, u
- COC(=O)c1nn(-c2cccc(Cl)c2)cc(OC)c1=O
 : x, -19%, 0%, 3%, x, -1%, x, x
- O=C(COC(=O)C1=Cc2ccccc2OC1)NC1CCCC1
 : 2%, x, -3%, -11%, 3%, -2%, 5.4%, -2%
- CCN(CC)c1ccc(/C=N/NC(=O)C2CC2)cc1
 : x, 48%[activator], -24%, 4%, x, -2%, x, x
- O=C1OC(Nc2ccc(Cl)cn2)c2ccccc21 (stereo not drawn)
 : 12%, -21%, 6%, -4%, u, -4%, 0.5%, 11%
- CC(C)(C)C(=O)COC(=O)c1cc2ccccc2cc1O
 : 19%, 41%[activator], 4%, 1%, -1%, 8%, 1.2%, 7%
- Cc1sc2ncnc(N/N=C/c3ccc(O)cc3)c2c1C
 : u, 5%, -22%, -5%, -5%, -27%, -15%, u
- O=C(CN(C1CCCCC1)C1CCCCC1)N1CCc2ccccc2C1
 : u, u, -61%, 4%, -4%, 6%, 4.3%, u
- O=C(c1cc(F)ccc1F)C1CCCN(C(=O)c2ccc3nccnc3c2)C1 (stereo not drawn)
 : 21%[46.1 µM], 18%, -20%, 4%, x, -1%, x, 19%[46.1 µM]
- COc1cc(C2C(C#N)=C(N)Oc3cc(N)ccc32)cc(OC)c1OC (stereo not drawn)
 : 5.6µM*, 9%, 18%, 3%, -2%, -20%, -3.4%, u
- O=C(NCC(=O)N1CCOCC1)c1ccccc1
 : u, 14%, 0%, 1%, x, 1%, x, u
- CCOc1nc(-c2ccccc2)ccc1-c1noc(-c2ccncc2)n1
 : 1%, 1%, -7%, 13%, -1%, 2%, 3.0%, -24%
- CCS(=O)(=O)c1nc(S(=O)(=O)c2ccc(Cl)cc2)c(N2CCc3ccccc3C2)s1
 : u, 9%, 27%, -9%, u, -8%, -7.3%, u
- Cc1cccc(N(C(=O)c2snc(C(N)=O)c2N)C(C(=O)NC2CCCC2)c2ccc(C)o2)c1 (stereo not drawn)
 : u, -14%, 13%, -13%, x, 0%, x, u
- COc1cccc(N=Nc2c(=O)[nH]n3c(=O)c4c([nH]c23)CCC4)c1
 : -2%, 3%, u, 7%, u, -23%, -13%, 9%
- CN1CCN(C(=O)c2cn(C)c3ccc(S(=O)(=O)N(C)C4CCCCC4)cc3c2=O)CC1
 : 0%, -10%, -4%, 2%, 12%, 8%, 0.3%, x
- O=C(Cc1ccc(S(=O)(=O)N2CCCC2)s1)N1CCN(c2ccc(F)cc2)CC1
 : u, u, x, 21%, x, 0%, x, u
- CCc1c(C)sc(NC(=O)c2cc(-c3cccc(Cl)c3)on2)c1C#N
 : -3%[46.1 µM], -18%, x, x, -2%, x, -2.3%, -2%[46.1 µM]
- Cc1cc(/C=C2/NC(=O)N(c3ccccc3)C2=O)c(C)n1C(C)C
 : u, 9%, u, 1%, -13%, 7%, -6.4%, u

More structures:
Below each compound – Marburg entry inh, 2A StopGo, NS1 function inh, RE007 growth inh, Cruzain noTriton, SARS PLpro yeast, Cruzain Triton, Lassa entry inh
- COc1ccc(-c2c(NC(=O)c3ccco3)oc3ccccc3c2=O)cc1
 : x, 0%, 14%, -20%, x, -4%, x, x
- COc1ccc(CCNC(=O)CSCc2n[nH]c(=O)[nH]2)cc1OC
 : 6%, -5%, 8%, 0%, -9%, 4%, 2.6%, -18%
- CC(C)(O)C#Cc1ncc(C(F)(F)F)cc1Cl
 : -6%, -22%, 3%, -14%, x, 1%, x, 6%
- CC1CCCN(C(=O)COC(=O)C2CCN(S(=O)(=O)c3c(Cl)cccc3Cl)CC2)C1 (stereo not drawn)
 : u, -9%, x, -6%, x, 5%, x, 7%
- Cc1ccc(NC(=S)N(Cc2ccccc2)C(C)C)cc1
 : 9%[14.2 µM], 6%, -4%, -6%, x, 0%, x, 8%
- CCOc1ccc(NC(=O)CSc2ncc3c(n2)-c2ccccc2N(C)S3(=O)=O)cc1
 : x, -9%, x, x, 16%, x, 1.5%, 14%[46.1 µM]
- CC(=O)Nc1ccc(NC(=O)c2ccccc2F)cc1
 : u, 46%[activator], -1%, 8%, -1%, -1%, 0.5%, 11%
